gsp ag – activates gsp, the McCune-Albright syndrome mutation; gsp mutant cells, cAMP HTRF, 30 min; control for the full effect not named in the record; Potency, µM (doses to about 76.9 µM), without a hit: at the highest dose activation (cAMP increase), hits mostly activators; 340,000 tested, 0.13% active; AID 624287; active = well fitted activation curve with a large enough effect; inconclusive = small, poorly fitted or top-dose-only effect, or another doubt; inactive = no such curve, though single readings can be large or run the other way; cell line not stated here;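 also: phosphodiesterase inhibitor Ro 20-1724 added with compounds to block cAMP breakdown; potency is read from the fitted curve at half-maximal effect; nearly all actives have a fitted effect of over 60% in size; about a fifth of the inactives were tested at one dose only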
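Cells in DMEM/10% FBS with G418 were pretreated with compounds in DMSO plus […] (300 uM stock) for 30 min at 37C. cAMP was measured by HTRF (cAMP-d2 plus anti-cAMP antibody-K) after 30 min at room temperature.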
D2 agonist – agonists of human D2 dopamine receptor (beta-arrestin); 360,000 tested, 0.084% active; activation, % (concentration not given with the values); P14416; DiscoveRx PathHunter D2 beta-arrestin, luminescence, 90 min; 100% = 57 uM dopamine signal; in the data active = activation above about 40%; inconclusive = about 15% to 40%; inactive = below about 15%; also: compound concentration not given in the record; the text of the record calls up to 30% inactive
Target sequence (P14416 whole entry, looked up): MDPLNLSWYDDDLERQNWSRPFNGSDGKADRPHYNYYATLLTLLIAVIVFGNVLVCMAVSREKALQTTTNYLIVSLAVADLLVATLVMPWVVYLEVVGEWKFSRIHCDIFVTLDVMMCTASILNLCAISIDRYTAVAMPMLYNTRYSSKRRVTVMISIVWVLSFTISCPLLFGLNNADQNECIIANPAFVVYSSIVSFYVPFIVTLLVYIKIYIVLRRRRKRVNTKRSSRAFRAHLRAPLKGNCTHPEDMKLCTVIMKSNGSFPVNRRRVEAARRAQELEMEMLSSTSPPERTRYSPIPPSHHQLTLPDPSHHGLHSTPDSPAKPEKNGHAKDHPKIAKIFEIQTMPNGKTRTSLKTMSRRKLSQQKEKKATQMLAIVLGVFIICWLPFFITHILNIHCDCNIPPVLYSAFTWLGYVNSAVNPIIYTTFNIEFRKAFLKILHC
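DiscoveRx PathHunter D2 beta-arrestin cells (2,100/well) attached overnight, then compound-stimulated 90 min at 37 C in HBSS/10 mM HEPES/0.1% Tween-20 buffer; beta-galactosidase complementation read by luminescence after 1 h at ambient temperature. Dopamine 57 uM final (EC100) as control.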
D2 potentiator – positive allosteric modulators of human D2 dopamine receptor; P14416; DiscoveRx D2 beta-arrestin cells, luminescence, 90 min; 100% = 57 uM dopamine signal; potentiation, % (test concentration not listed); 360,000 tested, 0.23% active; active = potentiation of 50% or more; inconclusive = 30% to 50%; inactive = 30% or less;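 also: compound concentration not given in the record; tested on top of an EC20 dose of dopamine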
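PathHunter beta-arrestin assay in DiscoveRx D2 cells. Compounds were added with an EC20 of dopamine (50 nM final) for 90 min at 37 deg C. Luminescence was read 1 h after detection reagent, with 57 uM dopamine as the EC100 control.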
gsp antag – antagonizes gsp, the McCune-Albright syndrome mutation; AID 624288; gsp-mutant cells, cAMP HTRF, 30 min; control for the full effect not named in the record; Potency, µM (titrated, usually from 76.9 µM), for inactives: top-dose activity change, negative = inhibition, actives largely listed as inhibitors; 340,000 tested, 0.4% active; active = falling curve of any shape with a large fitted effect; inconclusive = falling curve, mostly with a smaller effect; inactive = flat or rising curve; cell line not stated here;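 also: intracellular cAMP measured with PDE inhibitor Ro 20-1724 present during compound exposure; potency is read from the fitted curve at half-maximal effect; % is scaled to controls: 0 for no effect and ±100 for the full control effect; nearly all actives have a fitted effect of over 65% in size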
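G418-selected cells were plated in DMEM/10% FBS for 16-24 h at 37C, then treated with compounds plus the PDE inhibitor […] (300 uM solution added) for 30 min at 37C. Intracellular cAMP was measured by HTRF after 30 min lysis at room temperature.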
Six1-Eya2 blk – inhibitors of human Six1/Eya2 interaction; Q15475+O00167; AlphaScreen GST-Six1/His-Eya2 binding, biochemical; active compounds read low; control for the full effect not named in the record; activity change, % (concentration not given with the values); 360,000 tested, 0.56% active; in the data active = activity change below about -65%; inconclusive = about -30% to -65%; inactive = above about -30%; also: % is scaled to controls: 0 for no effect and ±100 for the full control effect
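AlphaScreen with GST-Six1 and His-Eya2 (5X mix: 250 nM and 500 nM), glutathione donor and nickel acceptor beads; buffer 50 mM Tris pH 8.0, 300 mM NaCl, 1 mM TCEP; 1 h at 37 C in the dark.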
CtBP-E1A inh – inhibitors of CtBP/E1A interaction; AlphaScreen GST-E1A/His-CtBP binding, 1536-well; active compounds read low; control for the full effect not named in the record; activity change, % (no concentration beside the values); 340,000 tested, 0.49% active; AID 651724; in the data active means activity change below about -65%; inconclusive means about -30% to -65%; inactive means above about -30%; also: % is scaled to controls: 0 for no effect and ±100 for the full control effect
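GST-E1A and His-tagged CtBP (125 nM each as 5X stock) were preincubated with pin-transferred compound for 2 h at 37 °C in the dark, then glutathione donor and nickel acceptor beads were added for 1 h before AlphaScreen reading.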
Starred values were filed as active, the others as inactive; ? = inconclusive; . = no result given; [ ] = remark or other dose.

gsp ag	D2 agonist	D2 potentiator	gsp antag	Six1-Eya2 blk	CtBP-E1A inh	smiles
3%	-3.9	-5	-2%	5	2	COC(=O)C1C(=O)C2=C(CC1C)NC(C)=C(C(=O)OC(C)C)C2c1ccc(OC)c(O)c1 (stereo not drawn)
20%	0.3	-7	-5%	-30	?	COc1ccc(-c2cc3n(n2)CCc2nc4ccccc4n2-3)cc1
-8%	-1.6	4	6%	29	63	O=C(c1cc2ccccc2oc1=O)N1CCN(C(=O)C2CCCO2)CC1 (stereo not drawn)
10%	2.3	-12	-18%	0	-1	Cc1oc2ccc(O)cc2c1C(=O)c1ccc(Cl)cc1
9%	-1.4	-18	-19%	-1	10	CN(Cc1ccno1)Cc1cn(Cc2ccccc2)nc1-c1ccc2c(c1)OCO2
-3%	-0.4	14	?	-6	-2	c1ccc(N2CCN(c3ncnc4c3oc3ccccc34)CC2)cc1
15%[15.4 µM]	3.4	6	.	-8	20	O=C(O)c1ccc(COc2ccc3ccccc3c2/C=C2/NC(=O)N(Cc3ccc(F)cc3)C2=O)cc1
5%	6.7	-15	-4%	-11	.	Nc1c(-c2ccc(Cl)cc2)cnc2c(-c3ccc(F)cc3)cnn12
?	0.7	-1	4%	4	6	O=C(Cc1c(F)cccc1Cl)Nc1cccnc1
?	-3.5	-7	-4%	-9	-3	COc1ccc(CNC(=O)[C@H](Cc2c[nH]c3ccccc23)NC(=O)[C@@H]2Cc3ccccc3CN2)cc1
41%	1.4	-5	6%	-5	-1	Cn1cc([N+](=O)[O-])c(C(=O)NC2CCCCCC2)n1
?	0.4	-6	3%	0	5	Cc1onc(C(=O)NCc2cccs2)c1[N+](=O)[O-]
?	0.2	-7	-4%	-1	-2	COc1ccccc1NS(=O)(=O)c1cc2c3c(c1)CC(=O)N3CCC2
0%[15.4 µM]	2.8	1	2%	?	3	O=C(N/N=C/c1ccc(OC(=O)c2ccc([N+](=O)[O-])cc2)cc1)c1cccnc1
12%	-0.5	-2	-15%	0	3	CC(=O)N1CCN(c2ccc(NC(=O)c3ccc4c(c3)OCCO4)cc2)CC1
16%[15.4 µM]	-2.8	-7	-7%	4	1	CCC(/C=N/Nc1ccc(S(=O)(=O)N2CCCC2)cc1[N+](=O)[O-])CC
?	0.7	-20	-10%	-7	0	Cc1nc([N+](=O)[O-])c(Sc2nc3ccccc3n2C)n1Cc1ccccc1
11%	-1.1	-7	2%	2	6	Cc1ccc(S(=O)(=O)/N=C/N(C)C)cc1
0%	0.2	-8	20%	0	7	O=Cc1cn(-c2ccccc2)nc1-c1cc2ccccc2oc1=O
5%[15.4 µM]	-0.2	-3	7%	-6	6	COc1ccc(C(=O)Oc2ccc(/C=N/NC(=O)Cc3ccc([N+](=O)[O-])cc3)cc2)cc1
0%	-8.9	-25	14%	-4	-3	OC[C@H](O)[C@H](O)[C@@H](O)[C@@H](O)[C@@H]1SC(c2ccccc2)=NN1c1ccccc1
0%	-1.8	-5	-25%	-2	0	COc1ccc(C)cc1NC(=O)CN1CCN(S(=O)(=O)c2ccc(Cl)cc2)CC1
27%[15.4 µM]	-2.6	1	-10%	-20	-20	CCCCOc1ccc(C(=O)N/N=C/c2cn[nH]c2-c2ccc(OC)c(OC)c2)cc1
0%[15.4 µM]	1.7	-10	10%	1	7	C/C(Cn1cnc([N+](=O)[O-])n1)=N\NC(=O)c1ccccc1F
11%	1.7	3	-15%	18	0	CC(C)CC(=O)N(c1nnc(-c2cccnc2)s1)C1CCCC1
-12%	-4.2	-31	7%	5	2	CC1CC(C)CN(CCCNC(=O)c2ccc3c(c2)NC(=O)C(N2CCCCC2)S3)C1 (stereo not drawn)
0%	-10	12	?	-23	-16	CCn1c(SCC(=O)Nc2nc3ccccc3s2)nc2c(c1=O)SC(C)C2 (stereo not drawn)
-1%	-8.5	-28	0%	-2	15	CC1CCN(C(=O)COC(=O)c2ccc(=O)n(Cc3ccccc3)n2)CC1
-1%	-4.2	-22	-23%	-2	-11	CCCc1ccc(NC(=O)C2CCN(c3cnccn3)CC2)cc1
-24%	5.6	-13	3%	-11	-6	COc1cc([N+](=O)[O-])cc([N+](=O)[O-])c1NC(=O)N1CCOCC1
.	-3.7	-13	16%	6	7	C[C@]12CCC(=O)C=C1[C@H](O)C[C@@H]1[C@@H]2[C@@H](O)C[C@@]2(C)[C@H]1CC[C@]2(O)C(=O)CO
-70%[inhibitor]	1.1	-4	-9%	9	-4	Nc1nnc(SCC(=O)NCCNC(=O)CSc2nnc(N)s2)s1
30%	14	-32	14%	8	0	O=C(CN1C(=O)COc2ccccc21)NCCCN1CCN(c2ccccc2F)CC1
-72%	-1.1	6	1%	0	-16	COc1ccccc1S(=O)(=O)Cc1ccc(C(=O)NC2CCCCC2)o1
-56%	-3.6	-4	-2%	-3	2	CN(C)c1ccc(C(=S)N2CCOCC2)cc1Br
?	7.6	1	0%	4	5	O=c1[nH]cccc1-c1nc2ccccc2n1Cc1ccc(F)cc1
?	5.4	1	-14%	-5	4	Cc1ccc2cc(/C=C(\C#N)C(N)=O)c(N3CCCCC3)nc2c1
1%[15.4 µM]	-5.4	-2	-10%	16	3	Cc1cc2c(cc(C(=O)OC(C)C(=O)NCc3ccc(F)cc3)n2C)o1 (stereo not drawn)
9%	-3.6	-2	0%	-1	0	O=C1CCc2cc(S(=O)(=O)N3CCCC3C(=O)N3CCN(c4ccccc4)CC3)ccc2N1 (stereo not drawn)
-16%	0.7	6	0%	8	-4	Cc1ccc(S(=O)(=O)NC2(C(F)(F)F)NC(=O)N(Cc3ccccc3)C2=O)cc1 (stereo not drawn)
.	-1.7	-9	-6%	3	3	CCO[C@H]1OC(C(=O)N2CCN(C)CC2)=C[C@@H](c2ccc(Br)cc2)[C@@H]1CCCO
1%[15.4 µM]	-2.0	-11	0%	6	-1	O=C(COc1cccc([N+](=O)[O-])c1)NN1C(=O)c2ccccc2C1=O
?	0.5	-35	-6%	5	1	O=C(CSc1nnc2ccc(-c3cccnc3)nn12)Nc1ccccc1
-13%	-2.1	-9	-9%	2	5	CCC(=O)c1ccccc1OCCN1C(=O)NC(C)(C)C1=O
-2%[15.4 µM]	6.0	-5	-4%	-9	.	FC(F)Oc1ccc(-c2csc(NNC3=NCCCCC3)n2)cc1
-7%	0.1	-9	-3%	?	4	CC1CCN(S(=O)(=O)c2ccc(NC(=O)CSc3ncccc3C(=O)O)cc2)CC1
22%	-7.6	-22	7%	5	.	CCCc1ccc(C(=O)NNc2ccccc2F)cc1
21%	-4.2	-19	-4%	-18	.	Cc1cc(C(=O)CSc2nc3ccc(Cl)cc3[nH]2)c(C)n1Cc1ccco1
.	-2.4	0	.	6	0	CCc1nc2ccc(C(=O)NCCNC(C)=O)cn2c1N(C)Cc1ccc(OC)cc1
-15%	-1.7	-15	0%	-17	-27	O=Cc1cc(Cl)ccc1OCCN1CCC(Cc2ccccc2)CC1
-53%[15.4 µM]	2.3	5	-6%	18	9	Cc1cccc(NC(=O)c2ccc(S(=O)(=O)N3CCC(C)CC3)cc2)n1
?	-2.9	-10	19%	0	7	C[C@H](NC(=O)N1CCn2c1nc1ccccc12)C(=O)NCC1CCCO1 (stereo partly drawn)
-1%[15.4 µM]	-1.9	-11	-8%	1	9	Cc1cc(C)n(-c2ccc(Cl)c(C(=O)NCc3ccccc3)n2)n1
17%	-4.2	2	5%	0	.	COc1cc(C(=O)NC2CCCC(C)C2C)ccc1OCC(=O)N1CCOCC1 (stereo not drawn)
?	-2.3	-1	10%	5	4	CC(C)(C)OC(=O)N1CCN(C(=O)[C@H](Cc2ccc(O)cc2)n2cc(CCO)nn2)CC1
0%[15.4 µM]	-0.5	-1	-12%	-23	-9	Cc1ccc(N=Nc2c(C)[nH]n(-c3ccccc3)c2=O)c(C)c1
-5%	-2.7	-24	7%	0	2	Cc1cc(C)c(OCC(=O)Nc2ccccn2)c([N+](=O)[O-])c1
.	1.8	-12	4%	7	5	CNCC(O)C(O)C(O)C(O)CO (stereo not drawn)
-12%	0.3	-6	-21%	-18	-16	Cn1c(O)c(/C=C2\C=NN=C2c2ccccc2)sc1=S
12%[15.4 µM]	-2.5	-7	-32%	-3	0	CCn1c(=O)c(=O)[nH]c2cc(C(=O)NC(C)c3ccc(S(N)(=O)=O)cc3)ccc21 (stereo not drawn)

Further records:
gsp ag	D2 agonist	D2 potentiator	gsp antag	Six1-Eya2 blk	CtBP-E1A inh	smiles
.	.	-6	.	?	-29	C(=N\Nc1nc(-c2ccccn2)nc2ccccc12)/c1ccccc1
-22%[15.4 µM]	-0.7	1	-22%	-19	0	COc1cccc(CNC(=O)CCC2CCCN(C(=O)c3cccc4c(C)c(C)[nH]c34)C2)c1 (stereo not drawn)
-1%	-2.1	-6	?	-12	10	Cc1cc(N2CCN(C(=O)c3ccco3)CC2)n2ncc(-c3ccccc3)c2n1
-35%[inhibitor]	0.4	1	6%	4	2	C=CCSc1[nH]c(=O)cc(C)c1C(N)=O
0%	2.4	8	-2%	1	2	CC1CC(C)CN(C(=O)C2CCN(S(=O)(=O)c3c(Cl)cccc3Cl)CC2)C1 (stereo not drawn)
-5%	-1.1	5	-11%	2	-10	COC(=O)C1CN(S(=O)(=O)c2ccccc2)CCN1S(=O)(=O)c1ccccc1 (stereo not drawn)
.	0.7	-11	-12%	2	1	CC1(C(=O)N2CC3(CC(c4cccc(NC(=O)COc5ccc(Cl)cc5)c4)=NO3)C[C@@H]2C(N)=O)CC1 (stereo partly drawn)
5%	-1.5	-6	5%	-8	-1	Cc1nc(Nc2ccccc2)sc1C(=O)c1ccccc1
4%	-3.5	-9	1%	-6	.	O=C(Nc1cccnc1)c1ccc(COc2ccccc2Br)cc1
1%[15.4 µM]	-0.8	-12	10%	-2	-5	CCN(Cc1ccccc1OC)CC1CCCN(CCc2cccc(OC)c2)C1 (stereo not drawn)
26%	0.0	15	-30%	-2	-2	Cc1cccc(N2CCN(C(=O)c3cccc(N4C(=O)C5C6C=CC(C6)C5C4=O)c3)CC2C)c1 (stereo not drawn)

Pulled by compound from above, five records:
gsp ag	D2 agonist	D2 potentiator	gsp antag	Six1-Eya2 blk	CtBP-E1A inh	smiles
26%	0.0	15	-30%	-2	-2	Cc1cccc(N2CCN(C(=O)c3cccc(N4C(=O)C5C6C=CC(C6)C5C4=O)c3)CC2C)c1 (stereo not drawn)
.	0.7	-11	-12%	2	1	CC1(C(=O)N2CC3(CC(c4cccc(NC(=O)COc5ccc(Cl)cc5)c4)=NO3)C[C@@H]2C(N)=O)CC1 (stereo partly drawn)
4%	-3.5	-9	1%	-6	.	O=C(Nc1cccnc1)c1ccc(COc2ccccc2Br)cc1
-22%[15.4 µM]	-0.7	1	-22%	-19	0	COc1cccc(CNC(=O)CCC2CCCN(C(=O)c3cccc4c(C)c(C)[nH]c34)C2)c1 (stereo not drawn)
-5%	-1.1	5	-11%	2	-10	COC(=O)C1CN(S(=O)(=O)c2ccccc2)CCN1S(=O)(=O)c1ccccc1 (stereo not drawn)
